Screens: PubChem, National Center for Advancing Translational Sciences (NCATS)
GLA inh pH 4.5: blocks human alpha-galactosidase A at pH 4.5; activity change, negative = inhibition, % at 105 µM; P06280; purified enzyme, 4-MU-alpha-Gal fluorescence, pH 4.5; 230,000 tested, under 10 active; inconclusive = small, poorly fitted or top-dose-only inhibition, or a rising curve; inactive = flat fitted curve, though single readings scatter; no compound was filed as active;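 note: 0% = full activity with enzyme and -100% = basal without enzyme; dose as in the result columns while the protocol names 77 µM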
Rango dissoc inh: prevents RanGTP from dissociating the Rango-importin beta complex; Potency, µM (highest dose often 46.1 µM), for the others: at the top dose activity change, negative = inhibition; 340,000 tested, 0.071% active; AID 540253; Biochemical FRET Rango-importin beta, RanGTP-induced dissociation; active means falling FRET ratio curve, often poorly fitted, with flat reads before Ran was added; inconclusive means other falling curves, or compound fluorescence or quenching; inactive means flat or rising ratio curve;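 note: potency is the fitted concentration of half-maximal effect; % of control where 0% means no effect; nearly all actives have a fitted effect of over 45% in size; -100% = wells without RanGTP and RCC1; the record marks most hits as doubtful in a second field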
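Compounds sat 5 min at room temperature with 0.1 uM Rango biosensor plus 0.25 uM importin beta, then FRET pre-read. RanGTP-RCC1 (0.6 uM Ran, 2mM GTP, 0.2 uM RCC1) added for 45 min, and the CFP/YFP post-read measured blocked complex dissociation.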
Rango-impB inh: inhibitors of Rango-importin beta complex formation; Q14974; Rango CFP/YFP FRET sensor + importin beta, 45 min; Potency, µM (titrated, usually from 92.2 µM), inactives show top-dose inhibition of complex formation; 340,000 tested, 0.031% active; active = rising FRET ratio curve, often small or poorly fitted; inconclusive = mostly compound fluorescence or quenching in the first reads; inactive = flat curves in all reads;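 note: potency is the fitted concentration of half-maximal effect; 0% = DMSO wells and 100% = buffer wells lacking importin beta; nearly all actives have a fitted effect of over 15% in size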
Target sequence (Q14974 whole entry, looked up): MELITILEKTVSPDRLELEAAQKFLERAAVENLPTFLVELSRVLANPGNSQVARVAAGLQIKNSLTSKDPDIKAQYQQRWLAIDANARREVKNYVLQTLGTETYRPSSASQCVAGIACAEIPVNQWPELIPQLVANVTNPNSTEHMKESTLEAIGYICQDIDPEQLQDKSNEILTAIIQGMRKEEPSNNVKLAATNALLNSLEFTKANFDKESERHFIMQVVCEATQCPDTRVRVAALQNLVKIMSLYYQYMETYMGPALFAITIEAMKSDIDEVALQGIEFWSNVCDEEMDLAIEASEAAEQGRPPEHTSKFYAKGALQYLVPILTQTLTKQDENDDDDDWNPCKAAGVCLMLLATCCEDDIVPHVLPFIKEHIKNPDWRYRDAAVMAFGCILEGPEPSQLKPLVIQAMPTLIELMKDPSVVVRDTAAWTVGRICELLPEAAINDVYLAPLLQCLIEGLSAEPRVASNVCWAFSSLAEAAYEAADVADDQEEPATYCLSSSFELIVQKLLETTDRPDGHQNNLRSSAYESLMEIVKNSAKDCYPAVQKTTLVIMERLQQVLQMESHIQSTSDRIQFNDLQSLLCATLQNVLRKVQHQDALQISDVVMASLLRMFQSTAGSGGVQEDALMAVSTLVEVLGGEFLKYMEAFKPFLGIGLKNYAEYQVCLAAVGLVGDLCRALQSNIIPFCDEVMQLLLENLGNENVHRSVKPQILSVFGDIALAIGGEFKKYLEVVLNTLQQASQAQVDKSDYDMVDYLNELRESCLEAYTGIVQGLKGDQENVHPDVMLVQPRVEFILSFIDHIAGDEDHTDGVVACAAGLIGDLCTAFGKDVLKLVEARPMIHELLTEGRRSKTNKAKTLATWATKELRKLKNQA
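Inhibition scored from the CFP 486 nm/YFP 530 nm FRET ratio 45 min after adding 0.125 microM importin beta to 50 nM Rango biosensor preincubated 5 min with compound (room temperature, PBS with DTT, Tween-20, BSA). No-importin wells as positive control.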
miR-21 reporter: raises the signal of a miR-21 reporter | HeLa miR-21 FLuc reporter, luciferase, 48 h | Potency, µM (top dose mostly 38.3 µM), for inactives: top-dose reporter change, positive = more light | 340,000 tested, under 10 active | AID 2288; active = well fitted rising curve with a large enough effect; inconclusive = small, poorly fitted or top-dose-only effect; inactive = no such curve, though single readings can be large or run the other way;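 note: % of control where 0% means no effect; miR-21 action dims this reporter so a rising signal means less miR-21 action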
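Compounds were titrated across several concentrations (up to approximately 40 uM) and incubated 48 hours with HeLa miR-21-FLuc reporter cells (miR-21 target sequence downstream of FLuc, endogenous miR-21). Readout was firefly luciferase luminescence after lytic detection reagent.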
Active calls of the source: *; ? = inconclusive; . = not tested or not shown; & = joins results of further samples. A portion of the library; the hit share may differ from the screen's.

No.	GLA inh pH 4.5	Rango dissoc inh	Rango-impB inh	miR-21 reporter	molecule
1	8	0%	-5.0%	4%	COCCNC(=O)C(c1ccc(C)o1)N(Cc1cccs1)C(=O)c1snc(C(N)=O)c1N (stereo unspecified)
2	-8	4%	-0.5%	-1%	O=C(NCc1ccc(Cl)cc1)c1ccc(CNc2c(N3CCOCC3)c(=O)c2=O)cc1
3	-4	-1%	0.1%	3%	COc1ccc(C(CC(=O)N2CCCC(C)C2)c2c(OC)cc(OC)c3c(-c4ccccc4)cc(=O)oc23)cc1 (stereo unspecified)
4	-7	5%	-0.1%	-19%	S=c1[nH]nc(-c2ccc(Cl)cc2)n1-c1ccc2c(c1)OCCO2
5	0	-9%	1.2%	5%	COc1ccc(OCC(O)CNS(=O)(=O)c2ccc(C)cc2)cc1 (stereo unspecified)
6	-15	1%	-2.8%	10%	COc1ccc(C2CC(c3ccc4ccccc4c3)=NN2C(=O)CNC2CCCCC2)cc1 (stereo unspecified)
7	-13	1%	-0.5%	-19%	Cn1c(=O)[nH]c(=O)c2c1nc(N1CCC(Cc3ccccc3)CC1)n2Cc1ccccc1
8	-4	2%	3.0%	-6%	CSCCC(=O)N1C(C)CCCC1C(=O)O (stereo unspecified)
9	-10	6%	2.3%	-39%	CCN1CCN(c2ccc(NC(=O)c3cccc(F)c3)cc2Cl)CC1
10	-3	8%	2.8%	-2%	COc1ccc(NC(=O)CN2C(=O)C(c3ccccc3)=NC23CCCCCC3)cc1OC
11	4	-1%	-1.1%	-13%	CC(=O)NS(=O)(=O)c1ccc(NC(=O)C2C3C=CC(C3)C2C(=O)O)cc1 (stereo unspecified)
12	.	0%	-1.3%	-6%	CCC(C(=O)OC)n1cnc2scc(-c3ccc(C)cc3)c2c1=O (stereo unspecified)
13	.	-15%	0.7%	7%	O=C(COc1ccccc1[N+](=O)[O-])Nc1ccccc1N1CCCCC1
14	.	25%	-0.5%	-23%	CN(CC(=O)Nc1cccc(S(=O)(=O)N(C)C)c1)Cc1ccccc1
15	.	-5%	3.6%	-5%	COc1ccc(CCC(C)NCc2cc(OC)cc(OC)c2)cc1 (stereo unspecified)
16	-6	-1%	6.8%	-4%	CC1(C)C(=O)NCCN1C(=O)CCC(=O)O
17	1	-2%	-2.9%	0%	CCc1nnc(NS(=O)(=O)c2ccc(N3C(=O)c4ccc(C(=O)O)cc4C3=O)cc2)s1
18	-23	-8%	-0.8%	-7%	CC(C)(C)c1ccc(/C=C/C(=O)Nc2ccncc2)cc1
19	.	6%	3.2%	8%	COCCn1c(SCC(=O)N2CCOCC2)nc2ccccc2c1=O
20	-5	1%	-1.6%	-6%	CC(=O)c1cn(CCC(C)C)c(=O)[nH]c1=O
21	.	7%	-5.4%	0%	CS(=O)(=O)Nc1ccccc1C(=O)Nc1ccccc1C(=O)N1CCCC1
22	-3	0%	-0.2%	-43%	COC(CNC(=O)c1ccc2c(c1)ncn2-c1ccc(F)c(F)c1)OC
23	5	13%	-0.5%	1%	Cc1ccc(CNC(=O)C(C)C2Sc3ccccc3NC2=O)cc1 (stereo unspecified)
24	-12	?	-2.2%	-6%	CC1(C)CC(=O)C(N=Nc2cc(Cl)c(Cl)c(Cl)c2)=C(O)C1
25	-2	-8%	-1.7%	-5%	O=C(O)C=C1C2CC3CC(C2)CC1C3
26	-5	0%	0.1%	12%	CC1(c2ccccc2)CC(C)(C)N(C(=O)CSc2nnc(N)s2)c2ccccc21 (stereo unspecified)
27	-5	1%	11%	5%	CS(=O)(=O)N(Cc1ccco1)CC(O)Cn1cc(C=O)c2ccccc21 (stereo unspecified)
28	2	2%	2.5%	-21%	COc1ccc(N=C(C)C2=C(O)CSC2=O)cc1
29	.	-11%	3.4%	.	OCCN1CCN(CC/C=C2/c3ccccc3CSc3ccccc32)CC1
30	3	-10%	5.5%	-4%	O=C(O)COc1ccc(/C=N/NC(=O)COc2nsnc2N2CCOCC2)cc1
31	.	3%	0.7%	0%	Cc1ncc(CN2CCCC(C(=O)Nc3ccc(-c4ccco4)cc3)C2)cn1 (stereo unspecified)
32	11	-13%	-0.8%	0%	Cn1nc(Oc2nc(N3CCOCC3)nc(N3CCOCC3)n2)ccc1=O
33	4	19%	-0.4%	-48%	Cc1csc(SCC(=O)Nc2ccc3c(c2)OCCO3)n1
34	-10	6%	-0.6%	-25%&-32%	CCOc1nc(NC(=O)NS(=O)(=O)Oc2cccc(Cl)c2)nc(-c2ccccc2)n1
35	-3	1%	-3.5%	24%	O=C(COc1ccc(Cl)cc1)N1CCN(C(=O)c2cccs2)CC1
36	-26	-13%	-0.6%	4%	O=C(Nc1cccc(Cl)c1)c1ccc2c(c1)SC1=NS(=O)(=O)CCN12
37	5	10%	0.2%	-2%	CN1CCC(N2CCCC(C(=O)O)C2)CC1 (stereo unspecified)
38	6	16%	-0.5%	-4%	CCCc1cc(=O)n2[nH]c(C)c(-c3ccccc3)c2n1
39	4	3%	-1.1%	-2%	COc1ccc2[nH]c(C)c(CCNC(=S)Nc3cc(C)cc(C)c3)c2c1
40	.	-1%	-3.2%	.	CC(C)C[C@@H](CN)NC(=O)c1nc[nH]c1C(=O)N[C@@H](Cc1ccccc1)C(=O)CNC[C@H](C)NC(=O)c1nc[nH]c1C(=O)N[C@@H](CC(C)C)C(=O)O
41	.	9%	-0.4%	1%	COc1ccc(-c2noc3c2-c2nc(C4CCCCC4)sc2CC3)cc1
42	-2	8%	-1.0%	-21%	O=C(NCCN1CCOCC1)c1ccc(-c2ccccc2)cc1
43	.	-5%	-1.7%	-5%	Cc1ccc(CN2CCC(Oc3ccc(C(=O)NCc4ccccn4)cc3)CC2)o1
44	.	1%	-1.7%	.	CCN(C[C@H]1N[C@@](C)(C(=O)OC)[C@H]2C(=O)N(C)C(=O)[C@@H]12)C(=O)c1ccc(C)cc1
45	6	1%	1.3%	-3%	Cc1c(NC(=O)CSc2nnc(COc3ccccc3)n2-c2ccccc2)c(=O)n(-c2ccccc2)n1C
46	-6	-12%	1.3%	-4%	COc1cc(OC)c(C2=NOC(C(=O)Nc3c(C)n(C)n(-c4ccccc4)c3=O)C2)cc1Cl (stereo unspecified)
47	-6	8%	2.4%	-8%	COc1cc(NC(=O)C2CCCCC2)c(OC)cc1NC(=O)CN1CCCCC1
48	.	2%	-0.8%	.	CN(C)c1cc2c3ccccc3n(C)c2cc1N
49	9	-4%	-1.5%	0%	Cc1nc2c3ccccc3nc(SCC(=O)N3CC(C)CC(C)C3)n2n1 (stereo unspecified)
50	-7	2%	4.0%	7%	Cc1ccc(OCc2nnc(SCC(=O)Nc3ccc4c(c3)OCCO4)n2Cc2ccco2)cc1
51	.	-4%	4.6%	-41%	CN(CCc1ccccc1)C(=O)c1cc(COc2ccc(F)cc2Cl)on1
52	7	-16%	2.1%	-3%	Cc1ccc(C(=O)COC(=O)CCC(=O)Nc2cc(Cl)ccc2Cl)cc1[N+](=O)[O-]
53	-13	-7%	1.1%	-3%	CCCCn1c(SCC(N)=O)nc2c(sc3ccccc32)c1=O
54	-9	8%	3.8%	0%	COC(=O)c1sc2ccccc2c1-n1cccc1C(=O)C(=O)Nc1ccc(F)cc1
55	2	-8%	-3.4%	-8%	CCc1c(C)nc(SC(C(=O)O)c2ccccc2)c(C#N)c1C (stereo unspecified)
56	-1	-8%	-6.1%	-7%	COc1cc(C(=O)OCn2nnc3ccccc3c2=O)cc(OC)c1OC
57	-13	-5%	-1.1%	26%	S=C(Nc1ccc(Cc2ccncc2)cc1)Nc1cccc(Cl)c1
58	.	19%	2.8%	-8%	O=C(COC(=O)c1ccccc1[N+](=O)[O-])NCCCc1ccccc1
59	-3	9%	-1.9%	-36%	CCn1cc(C(=O)Nc2ccc(F)c(F)c2)cn1
60	.	1%	1.6%	.	CC1Oc2cc3oc4c(O)c(O)ccc4c(=O)c3c(O)c2C1(C)C (stereo unspecified)

By substructure, the compounds so far with a thiophene ring, fused or not (five)
No.	GLA inh pH 4.5	Rango dissoc inh	Rango-impB inh	miR-21 reporter	molecule
1	8	0%	-5.0%	4%	COCCNC(=O)C(c1ccc(C)o1)N(Cc1cccs1)C(=O)c1snc(C(N)=O)c1N (stereo unspecified)
12	.	0%	-1.3%	-6%	CCC(C(=O)OC)n1cnc2scc(-c3ccc(C)cc3)c2c1=O (stereo unspecified)
35	-3	1%	-3.5%	24%	O=C(COc1ccc(Cl)cc1)N1CCN(C(=O)c2cccs2)CC1
53	-13	-7%	1.1%	-3%	CCCCn1c(SCC(N)=O)nc2c(sc3ccccc32)c1=O
54	-9	8%	3.8%	0%	COC(=O)c1sc2ccccc2c1-n1cccc1C(=O)C(=O)Nc1ccc(F)cc1

(cont.)
No.	GLA inh pH 4.5	Rango dissoc inh	Rango-impB inh	miR-21 reporter	molecule
61	.	-10%	-0.3%	-12%	COc1ccc(C(=O)CCC(=O)Nc2ccc(N3CCCCC3)cc2)cc1OC
62	-4	0%	-6.5%	-2%	CCOCCCNC(=O)Cc1cc(=O)[nH]c(=O)[nH]1
63	.	0%	0.7%	.	Cc1cccc(NC(=O)[C@@H]2CCCN2C2=NS(=O)(=O)c3ccccc32)c1C
64	-3	22%	0.0%	-3%	N#Cc1nc(COc2ccccc2)oc1N1CCN(Cc2ccccc2)CC1
65	.	?	?	1%	Cc1ccc(S(=O)(=O)/N=C2/NC(=O)/C(=C\c3cc(Br)cc(Br)c3O)S2)cc1
66	.	-9%	-3.7%	0%	COc1ccc(S(=O)(=O)N2CCC(C(=O)N3CCN(C)CC3)CC2)cc1Cl
67	.	1%	0.0%	-55%	Cc1c(NC(=O)Nc2ccc3c(c2)OCO3)cccc1[N+](=O)[O-]
68	.	-1%	-0.5%	-15%	Cc1cc(Br)ccc1NC(=O)C1C2CCC(O2)C1C(=O)O (stereo unspecified)
69	.	-5%	11%	-32%	O=C(Nc1ccc(N2CCCC2)cc1)c1cccc(Cl)c1Cl
70	4	0%	2.6%	-3%	O=C(Nc1cc(SCC(O)CO)cc([N+](=O)[O-])c1)c1ccc(-n2cnnn2)cc1 (stereo unspecified)
71	2	1%	-0.1%	-3%	Cc1cc(C)n(-c2ccc(F)cc2CN2CCN(C3CCCC3)C(CCO)C2)n1 (stereo unspecified)
72	.	-11%	?	.	CC1CCCN(C(=O)CN2C(=O)c3ccccc3S2(=O)=O)C1 (stereo unspecified)
73	.	11%	0.5%	.	CC12CCC3c4ccc(O)cc4CCC3C1CC(=NO)C2O (stereo unspecified)
74	-3	0%	0.2%	-3%	O=C1[C@H]2[C@H](ON3CCCC[C@H]23)C(=O)N1c1cccc(C(F)(F)F)c1
75	3	-16%	2.4%	-1%	O=C(c1cccs1)N1CCCC1
76	-10	2%	6.1%	-1%	CC1(C)Cc2c(sc3c2c(=N)n(Cc2ccco2)c(=O)n3CC(=O)Nc2ccc(Cl)cc2)CO1
77	-5	-2%	-3.1%	-3%	CC(C)(C)C(=O)Nc1c(Br)c(C2CC2)nn1-c1ccccc1
78	0	-8%	1.6%	-6%	CN(c1ccccc1C(=O)O)S(C)(=O)=O
79	-5	?	-1.6%	13%	CCn1c2ccccc2c2cc(NS(=O)(=O)c3ccc(C)cc3)ccc21
80	.	-5%	-1.0%	1%	COCCNC(=O)c1ccc(C2SCC(=O)N2CCc2ccccc2)cc1 (stereo unspecified)

Retrieved by compound from above (seven):
No.	GLA inh pH 4.5	Rango dissoc inh	Rango-impB inh	miR-21 reporter	molecule
78	0	-8%	1.6%	-6%	CN(c1ccccc1C(=O)O)S(C)(=O)=O
75	3	-16%	2.4%	-1%	O=C(c1cccs1)N1CCCC1
74	-3	0%	0.2%	-3%	O=C1[C@H]2[C@H](ON3CCCC[C@H]23)C(=O)N1c1cccc(C(F)(F)F)c1
80	.	-5%	-1.0%	1%	COCCNC(=O)c1ccc(C2SCC(=O)N2CCc2ccccc2)cc1 (stereo unspecified)
73	.	11%	0.5%	.	CC12CCC3c4ccc(O)cc4CCC3C1CC(=NO)C2O (stereo unspecified)
79	-5	?	-1.6%	13%	CCn1c2ccccc2c2cc(NS(=O)(=O)c3ccc(C)cc3)ccc21
76	-10	2%	6.1%	-1%	CC1(C)Cc2c(sc3c2c(=N)n(Cc2ccco2)c(=O)n3CC(=O)Nc2ccc(Cl)cc2)CO1
